High-throughput results deposited in PubChem BioAssay by several laboratories.
RecA intein inh = Mtb RecA intein splicing inhibitors, primary screen, biochemical, fluorescence, HTS. cell-free RecA intein splicing. inhibition, %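 (about 9 µM by stock and volumes)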. 290,000 compounds, 0.75% hits; in the data active = inhibition above about 30%; inconclusive = no clear call, values can overlap the other calls;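 also: 0% = vehicle wells and 100% = reference inhibitor control wells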
Target sequence (P9WHJ3 whole entry, looked up): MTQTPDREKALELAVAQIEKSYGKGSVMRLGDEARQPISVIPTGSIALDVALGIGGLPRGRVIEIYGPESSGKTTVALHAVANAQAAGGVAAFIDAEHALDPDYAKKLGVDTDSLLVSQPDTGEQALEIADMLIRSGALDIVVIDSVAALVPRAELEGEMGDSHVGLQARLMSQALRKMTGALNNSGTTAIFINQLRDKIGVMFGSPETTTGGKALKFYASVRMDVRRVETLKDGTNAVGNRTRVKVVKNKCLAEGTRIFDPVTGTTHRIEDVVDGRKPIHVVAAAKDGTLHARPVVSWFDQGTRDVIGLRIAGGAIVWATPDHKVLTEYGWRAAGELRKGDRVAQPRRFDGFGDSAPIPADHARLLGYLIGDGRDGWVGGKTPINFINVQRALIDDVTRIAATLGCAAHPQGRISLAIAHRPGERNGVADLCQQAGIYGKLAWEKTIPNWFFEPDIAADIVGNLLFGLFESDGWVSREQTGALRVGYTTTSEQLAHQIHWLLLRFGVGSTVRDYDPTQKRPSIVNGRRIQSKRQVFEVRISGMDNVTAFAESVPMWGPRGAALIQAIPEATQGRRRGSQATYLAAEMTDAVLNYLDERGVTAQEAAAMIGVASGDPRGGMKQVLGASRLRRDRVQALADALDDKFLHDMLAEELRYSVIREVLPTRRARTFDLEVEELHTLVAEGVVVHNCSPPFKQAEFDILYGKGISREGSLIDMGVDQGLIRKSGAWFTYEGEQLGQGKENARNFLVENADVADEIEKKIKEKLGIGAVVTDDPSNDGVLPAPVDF
YopH inh = YopH tyrosine phosphatase inhibitors, primary screen, biochemical, fluorescence Ex485/Em525 | YopH tyrosine phosphatase [Yersinia enterocolitica] | inhibition, %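 (about 10 µM by stock and volumes)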 | 140,000 compounds, 0.16% hits | AID 898, 2007;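 active = inhibition of 50% or more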;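 also: controls were vehicle for no effect and minimum signal wells for full effect; inactives centre near -20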
Mtb H37Rv = M. tuberculosis H37Rv growth inhibitors, H37Rv strain (AID 1626); 220,000 compounds, 0.95% hits; one-dose inhibition, % at 10 µM; IC50 in µM for titrated hits; M. tuberculosis H37Rv growth inhibition; higher % means a stronger effect;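 active = confirmed in a dose series; inconclusive = inhibition above 80% but not taken into the dose series; inactive = below 80% or under 30% at every dose of the series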;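 also: bacteria incubated seven days before Alamar blue readout; 0% = bacteria only wells and 100% = bacteria with antibiotic wells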
Mtb betalactam = beta-lactam sensitization of Mtb H37Rv, H37Rv; 330,000 compounds, 0.27% hits; inhibition, % at 25 µM; M. tuberculosis H37Rv growth with meropenem, percent inhibition; hits of this screen are not shown here;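 active = about 74% or more and at least 40 points above the plate without the antibiotic, then above 30% in a dose series; inconclusive = first-round hits that could not be retested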;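 also: growth measured after seven days incubation then overnight dye step; 0% = bacteria only wells and 100% = bacteria with antibiotic; twin plates without the antibiotic show which effects depend on it; some results filed as inactive read as strong as hits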
Arbovirus anti = antivirals against arbovirus infection, primary screen, cell-based, full library, 10K replicate subset; arbovirus infection cell-based antiviral screen; inhibition, % at 10 µM; 200,000 compounds, 0.37% hits; AID 1251, 2008;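 active = inhibition from about 30%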;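 also: bluetongue infection of BSR cells; cell survival read as ATP light after 72 h; 0% = infected wells without compound and 100% = uninfected wells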
Arbovirus anti repeat = further read-out of Arbovirus anti, marked with its call; inhibition, %; measured here: 10K subset replicate screen; many hits read low in the repeat;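 first of two repeat runs on a subset; 0% = infected and 100% = uninfected wells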
Active calls of the source: *; u = inconclusive; x = not tested or not shown. These rows are one share of the data, so the mix of outcomes need not match the whole.

SMILES	RecA intein inh	YopH inh	Mtb H37Rv	Mtb betalactam	Arbovirus anti	others
CCn1c(=O)c([N+](=O)[O-])c(NCC2CCCO2)c2ccccc21 (stereo not given)	x	x	-2.6%	-5.2	x
Cc1cccc(Cn2nc(C(C)(C)C)cc2C(=O)Nc2ccc(F)cc2)c1	9.4	x	18.4%	10.1	x
O=C(NCC1CCCO1)c1cc2nc(-c3ccco3)cc(C(F)(F)Cl)n2n1 (stereo not given)	-6.0	x	x	1.9	x
Cc1cc(C)nc(SCc2cn3c(C)cccc3n2)n1	-5.3	x	-1.9%	2.5	x
CSCCC(NC(=O)c1ccco1)C(=O)Nc1ccc(C)cn1 (stereo not given)	-3.5	x	x	2.4	x
CCOc1cc(S(=O)(=O)n2ccc(C)n2)ccc1Br	2.0	x	3.9%	-9.8	12.5
O=S(=O)(c1ccc(S(=O)(=O)N2CCN3CCCC3C2)cc1)N1CCCC1 (stereo not given)	0.2	13.4	-10.4%	-3.1	3.6
C=CCNC(=S)/C(=C(/[O-])c1ccccc1Br)[n+]1ccccc1	-1.0	x	4.0%	-15.1	22.2
COc1ccc(-n2c(CN3CCOCC3)nc3ccc([N+](=O)[O-])cc3c2=O)c(OC)c1	1.0	x	x	6.5	x
Cc1ccc(-c2nnc(CSc3nc4cc5c(cc4cc3C)OCO5)o2)cc1	-0.1	-11.5	2.3%	11.1	12.9
O=C1N2CCSC2=NC1(Nc1nccs1)C(F)(F)F (stereo not given)	0.2	-23.0	-4.1%	-0.6	6.5
COC(=O)c1ccc2c(c1)N(Cc1cc(C)ccc1C)C(=O)c1ccccc1S2=O (stereo not given)	x	-23.0	-1.8%	x	7.5	Arbovirus anti repeat=3.7

4 compounds from above, sorted by SMILES length, largest number first:
SMILES	RecA intein inh	YopH inh	Mtb H37Rv	Mtb betalactam	Arbovirus anti	others
COC(=O)c1ccc2c(c1)N(Cc1cc(C)ccc1C)C(=O)c1ccccc1S2=O (stereo not given)	x	-23.0	-1.8%	x	7.5	Arbovirus anti repeat=3.7
O=C(NCC1CCCO1)c1cc2nc(-c3ccco3)cc(C(F)(F)Cl)n2n1 (stereo not given)	-6.0	x	x	1.9	x
C=CCNC(=S)/C(=C(/[O-])c1ccccc1Br)[n+]1ccccc1	-1.0	x	4.0%	-15.1	22.2
Cc1cc(C)nc(SCc2cn3c(C)cccc3n2)n1	-5.3	x	-1.9%	2.5	x

Going on with the list.
SMILES	RecA intein inh	YopH inh	Mtb H37Rv	Mtb betalactam	Arbovirus anti	others
COc1cc(NC(=O)c2ccco2)c(OC)cc1NC(=O)Nc1ccccc1Cl	-0.9	-23.1	-6.3%	-8.1	-6.2
Cc1cc(C)nc(SCc2ccc([N+](=O)[O-])cc2)n1	-0.6	x	-7.4%	9.6	-1.9
CC(=O)NCCC1CCCCN1Cc1nc(Cc2cccc(C(F)(F)F)c2)no1 (stereo not given)	1.9	x	-4.2%	-0.6	-1.9
Cc1ccc(C(C(=O)NC(C)(C)C)N(C(=O)c2csnn2)c2ccccc2F)o1 (stereo not given)	-1.1	-34.8	-8.5%	-16.9	4.0
COCC1=C(C(=O)OC)C(c2cccs2)n2ncnc2N1 (stereo not given)	x	x	-4.2%	-0.3	x
O=C1C2C3C=CC(C3)C2C(=O)N1c1cccc(N2C(=O)C3C4C=CC(C4)C3C2=O)n1 (stereo not given)	1.0	8.6	-8.0%	u	0.0	Arbovirus anti repeat=7.3
O=C(NCc1ccco1)c1cccc(Nc2nc3ccc(Br)cc3[nH]2)c1	24.7	2.1	3.1%	-3.1	-31.0
O=C1c2ccccc2C(=O)N1Cc1nc2ccccc2c(=O)n1-c1ccc(Br)cn1	-0.9	7.7	-7.9%	-1.7	16.2	Arbovirus anti repeat=1.4
O=C(COc1ccccc1O)N1CCN(C(=O)c2ccco2)CC1	-3.1	-31.3	-13.2%	1.3	5.4
CNC(=O)COC(=O)c1cc(SC)ccc1Cl	2.9	x	0.4%	-20.3	1.0
CC(C)(C)C(=O)NC(NC(=S)Nc1sc2c(c1C#N)CCCC2)C(Cl)(Cl)Cl (stereo not given)	1.5	-37.5	-0.4%	-5.5	-21.2
Cc1ccc(N2CN(S(=O)(=O)c3cccc([N+](=O)[O-])c3)c3nc4ccccc4nc32)cc1	0.4	x	x	24.6	x
O=C(Nc1ccc(Cl)c(Cl)c1)OCc1cnc(Cl)s1	2.1	-32.9	2.5%	-2.4	1.6
COc1ccc(S(=O)(=O)N(CC(=O)NCc2cccnc2)C2CCCCC2)cc1OC	2.0	x	5.3%	-0.7	x
COc1ccc(C(=O)Nc2ccc(NC(=O)c3ccco3)c(Cl)c2)cc1OC	2.8	-2.7	-13.7%	-3.3	3.1
C=CCNC(=S)NCc1cccnc1	-0.5	-11.7	-0.7%	-4.2	5.0
COc1ccc(/C=N/NC(=O)c2ccncc2)c(C(=O)O)c1OC	-5.3	x	u	98.9	x
CCOC(=O)/C=c1\s/c(=C\c2ccc(-c3ccccc3)cc2)c(=O)n1CC(=O)NCc1ccc2c(c1)OCO2	-2.8	-22.8	-6.3%	1.1	-13.3
COC(=O)C1=NNC2(c3ccc(Cl)cc3)C(=O)N(c3ccccc3)C(=O)C12 (stereo not given)	-0.2	-15.2	-5.8%	2.8	-9.3
CCCCCN(C(=O)CCC(=O)OCc1cc(C)ccc1C)c1c(N)n(CCCC)c(=O)[nH]c1=O	1.4	x	x	-5.9	x
Cc1ccc(S(=O)(=O)Nc2ccc(O)c3ncccc23)cc1	-5.7	x	-2.9%	7.4	0.6
CC(=O)NC(Cc1ccc(C)cc1)C(=O)NC1CCN(S(=O)(=O)c2ccccc2)CC1 (stereo not given)	-2.6	x	x	-0.1	x
COc1ccc(Cl)cc1S(=O)(=O)N(C)CC(=O)N1CCCC1	-2.2	x	x	0.5	x
CCN(CC)CP(=O)(c1ccccc1)c1ccccc1	-0.5	5.5	7.0%	-11.3	6.6
CC(CC(=O)N(C)C1CCCCC1)S(=O)(=O)c1ccc2c(c1)NC(=O)CO2 (stereo not given)	-1.7	x	x	-4.3	x
O=c1[nH]c(=O)n(-c2ccccc2)c(O)c1C=NC12CN3CN(CN(C3)C1)C2	0.8	x	-4.5%	4.0	2.6
CCCOc1ccc(-c2nnc(-c3ccncc3)o2)cc1	x	-5.4	-1.6%	73.1	15.1
O=C1OCCC1Sc1nc2cc(Cl)ccc2n1Cc1ccccc1 (stereo not given)	-0.4	-31.8	14.5%	-6.0	1.0
Cc1ccc(CNC(=O)C23CN(Cc4ccccc4)CC2C(c2ccc([N+](=O)[O-])cc2)=NO3)o1 (stereo not given)	3.4	-11.7	15.6%	2.7	9.2
Cn1c(SC/C=C/c2ccccc2)nnc1-c1ccco1	3.4	-35.0	8.1%	-15.8	-2.8
O=S(=O)(Nc1cccnc1)c1cccc(C(F)(F)F)c1	-2.4	8.4	-0.7%	0.2	3.4
CC(C)Oc1ccc(C(=O)NCCCNC(=O)c2cccnc2)cc1	1.6	x	x	-1.7	x
O=C(NCC1CC1)c1ccc2c3n(nc2c1)-c1ccccc1CO3	-1.0	x	-1.3%	18.2	x
CC(=O)c1ccc(S(=O)(=O)N(C)CC(=O)NCC2CCCCC2)cc1	-1.6	x	x	2.6	x
Cc1ccc2nc(COc3ccc(Cl)cc3)cc(=O)n2c1	x	x	-5.8%	-6.5	1.0
COC(=O)c1cccc(Cn2cc([N+](=O)[O-])cn2)c1	-0.1	x	0.6%	4.2	9.0
CCc1ccc(C(=O)c2ccccc2C(=O)O)s1	-1.1	-4.5	-2.3%	-3.8	7.0
CSc1nccc(NC(=O)c2cccc(Br)c2)n1	2.1	x	x	1.3	x
O=C(NCCCN1CCOCC1)c1cc(-c2ccc(F)cc2)on1	-1.1	-41.9	-5.8%	-12.3	2.0
CCN(CC)S(=O)(=O)c1cc(NC(=O)c2cc([N+](=O)[O-])ccc2N2CCOCC2)ccc1C	4.6	x	x	0.8	x
Cc1cc(C)cc(-n2ccnc2SCC(=O)Nc2ccc3c(c2)OCCO3)c1	6.7	-17.1	-3.6%	-9.4	5.7
COc1ccc(CCNC(=O)C2=CCN(S(=O)(=O)c3ccc(F)cc3)CC2)cc1OC	-0.2	x	x	3.1	x
Cc1cc(-c2nnc(SCC(=O)NC3CC3)n2C(C)C)cs1	-0.9	x	x	-15.1	x
CCn1c(NC(=O)c2ccc(COc3ccc(C)cc3[N+](=O)[O-])o2)nc2ccccc21	-1.9	-10.3	58.4%	69.7	-20.9
Cc1cccc2c(=O)c(C(=O)NCCc3ccccc3)c[nH]c12	-1.5	x	x	3.5	x
CCOC(=O)N1CCN(C(=O)c2cccn3c(=O)c4cc(Cl)ccc4nc23)CC1	-19.3	-1.0	-4.2%	-9.6	-1.6
CCc1cc2cc3c(cc2nc1SCC(=O)Nc1cc(OC)c(OC)cc1C(=O)O)OCO3	-1.7	x	-6.2%	6.2	20.2
O=C(Nc1cccc(Cl)c1)c1ccc(NCC2CCCO2)c([N+](=O)[O-])c1 (stereo not given)	0.0	-8.1	-3.7%	-5.2	-26.0
C=CCN1C(=O)CSc2ccc(C(=O)N3CCC4(CC3)OCCO4)cc21	-1.0	-26.2	-1.8%	x	-1.8
COc1cccc(/C=N/NC(=O)c2ccc3nc[nH]c3c2)c1O	-4.6	x	1.5%	-1.1	x
C[C@H]1[C@H](C)CC[C@]2(C(=O)O)CC[C@]3(C)C(=CC[C@@H]4[C@@]5(C)C[C@@H](O)[C@H](O)C(C)(C)[C@@H]5CC[C@]43C)[C@H]12	-1.9	-15.1	-2.7%	-7.6	-37.1
COc1ccc(-c2sc3ccccc3c2C#CC2(O)CCCCC2)cc1	8.4	x	x	96.7	x
COc1ccc(CCNC(=S)N(C)C)cc1OC	-3.9	x	-2.0%	-3.7	x
O=C(CCCCCCC(=O)NCc1ccccc1)NCc1ccccc1	-1.9	x	x	-2.9	x
O=C(NC1CCCCC1)N1CCC(n2c(=O)[nH]c3ccccc32)CC1	-0.1	-42.9	-1.7%	4.2	13.0	Arbovirus anti repeat=0.4
CCOc1ccc(-c2nnc3ccc(SCc4ccc(C(=O)OC)o4)nn23)cc1	x	-1.8	7.7%	0.5	-5.4
Cc1ccoc1C(=O)NCCNc1ccc(Cl)cc1[N+](=O)[O-]	-3.8	-27.3	-2.7%	7.8	12.4
O=C(O)C1CCCCC1C(=O)Nc1ccc(F)c(F)c1 (stereo not given)	-0.2	-19.1	0.5%	-0.8	-9.1
CC(C)(C)c1ccc(C(=O)NCC(=O)OCC(=O)Nc2ccc3c(c2)OCCO3)cc1	6.6	-15.7	-4.5%	-9.4	-1.9
CCOC(=O)CCCCC(=O)c1[nH]c(=O)[nH]c1CN1CCOCC1	-1.7	-32.1	2.5%	2.9	6.8

Two successive records from above, for reference:
SMILES	RecA intein inh	YopH inh	Mtb H37Rv	Mtb betalactam	Arbovirus anti	others
Cc1ccoc1C(=O)NCCNc1ccc(Cl)cc1[N+](=O)[O-]	-3.8	-27.3	-2.7%	7.8	12.4
O=C(O)C1CCCCC1C(=O)Nc1ccc(F)c(F)c1 (stereo not given)	-0.2	-19.1	0.5%	-0.8	-9.1

Continued:
SMILES	RecA intein inh	YopH inh	Mtb H37Rv	Mtb betalactam	Arbovirus anti	others
O=C(CSc1nnc(-c2ccncc2)n1CCc1ccccc1)N1CCCC1	-1.9	x	-4.3%	-1.9	x
O=C(C1=C(O)C(=O)N(CCN2CCOCC2)C1c1ccc([N+](=O)[O-])cc1)c1cccs1 (stereo not given)	1.9	x	x	-12.9	x
Cc1cc(NC(=O)CSc2nnc(Cn3c(=O)sc4ccccc43)n2-c2ccccc2C)no1	1.5	-45.1	x	u	6.5	Arbovirus anti repeat=-0.4
Cc1ccc(C)n1-c1cc([N+](=O)[O-])ccc1-n1ccnc1	-0.6	x	6.4%	-4.4	x
CC(/C=N/NC(=O)c1ccco1)=C\c1ccccc1	x	x	-2.4%	-7.0	-2.8
CCc1ccc(C(=O)OCC(=O)NCCNC(=O)COC(=O)c2ccc(CC)cc2)cc1	-1.3	x	x	-9.7	x
CCOCc1nnc(NC(C)=O)s1	-0.7	-34.6	2.5%	3.3	2.1
COc1cccc(OC)c1OC(=O)c1cnccn1	-2.9	x	x	-0.2	x
Cc1cccn2c(=O)nc(SCC(=O)NCc3ccc4c(c3)OCO4)nc12	0.1	x	x	-7.4	x
CC1(O)C(=O)C=C2C=C(c3ccc(C#N)cc3)OC=C2C1=O (stereo not given)	5.6	x	-5.9%	-3.4	x
COCC(C)NS(=O)(=O)c1ccc(NC(=O)C(Cc2ccccc2)NC(N)=O)cc1 (stereo not given)	0.3	-50.4	1.6%	-0.2	2.8
